Source: PubChem
SARS PLpro yeast = blocks SARS-CoV papain-like protease in a yeast assay; S. cerevisiae expressing SARS-CoV PLpro, growth rescue; control for the full effect not named in the record; Potency, µM (highest dose often 32.9 µM), for inactives: at the top dose activity, positive = growth rescue; 330,000 tested, 0.19% active; further: 0% is about no effect; nearly all actives have a fitted effect of over 55% in size; growth read by luminescence after 48 h
NS1 function inh = blocks influenza NS1 protein function; S. cerevisiae slowed by influenza A NS1, growth recovery by OD600; Potency, µM (doses to about 46.1 µM), for the others: at the highest dose activity, positive = more growth; 270,000 tested, 0.4% active; further: actives are rising curves; nearly all actives have a fitted effect of over 50% in size
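S. cerevisiae expressing influenza A NS1, grown in glucose, washed, then diluted 1:100 into pH 6.0 -URA galactose medium with 23 nl compound. Growth recovery read as OD600; NS1-free strain serves as control.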
Cruzain inh noDet = cruzain (T. cruzi) inhibition without detergent. P25779. purified cruzain, Z-FR-AMC fluorescence, no detergent. Potency, µM, inactives show max response, negative = inhibition, hits mostly inhibitors. 200,000 tested, 2.3% active. AID 1476; active means well fitted curve in the direction sought with a large enough effect; inconclusive means small, poorly fitted or top-dose-only effect, or another doubt; inactive means no such curve, though single readings can be large; an effect the other way counts as inactive or inconclusive;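 further: plate controls were enzyme without inhibitor for no effect and buffer without enzyme for full effect; nearly all actives have a fitted effect of over 40% in size; top concentration of the series not given in the record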
Target sequence (P25779 123-467 limits assumed): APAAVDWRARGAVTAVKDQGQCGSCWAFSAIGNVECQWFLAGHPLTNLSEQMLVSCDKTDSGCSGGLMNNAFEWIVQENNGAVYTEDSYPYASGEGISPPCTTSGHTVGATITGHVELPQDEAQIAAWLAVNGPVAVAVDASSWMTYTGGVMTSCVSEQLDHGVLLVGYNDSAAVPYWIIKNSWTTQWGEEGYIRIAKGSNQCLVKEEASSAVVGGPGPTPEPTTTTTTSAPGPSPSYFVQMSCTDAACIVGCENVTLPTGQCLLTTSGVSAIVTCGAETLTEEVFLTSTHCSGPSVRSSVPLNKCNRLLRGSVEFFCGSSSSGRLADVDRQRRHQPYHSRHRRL
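Detergent-free condition (0.00005% Triton X-100) in acetate buffer pH 5.5 with DTT. 1.5 nM enzyme and compound were pre-mixed 15 min, then 2 uM Z-FR-AMC substrate added; reaction progress from fluorescence change between first and third reads (60 s).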
Cruzain Triton = cruzain (T. cruzi) inhibition with detergent | P25779 | purified cruzain, Z-FR-AMC fluorescence, 0.01% Triton | Potency, µM, for the others: max response, negative = inhibition, usual class: inhibitors | 200,000 tested, 0.43% active; active means well fitted curve in the direction sought with a large enough effect; inconclusive means small, poorly fitted or top-dose-only effect, or another doubt; inactive means no such curve, though single readings can be large; an effect the other way counts as inactive or inconclusive;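 further: plate controls were neutral wells for no effect and buffer without enzyme for full effect; nearly all actives have a fitted effect of over 40% in size; top concentration of the series not given in the record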
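Compounds were screened in titration against cruzain (1.5 nM) with 0.01% Triton X-100 to counter colloidal aggregation. Activity was the AMC fluorescence increase over 60 s after adding 2 uM Z-FR-AMC at pH 5.5.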
MARV entry inh = inhibitors of Marburg virus binding or cell entry; Marburg virus pseudotyped entry inhibition, cell reporter; control for the full effect not named in the record; about a third of the inactives were read at about 46 µM; Potency, µM (highest dose often 37.8 µM), without a hit: at the highest dose activity change, negative = inhibition, actives largely listed as inhibitors; 300,000 tested, 1.8% active; AID 540276; active = well fitted inhibition curve with a large enough effect; inconclusive = small, poorly fitted or top-dose-only effect, or effect the other way; inactive = flat fitted curve, though single readings scatter; tested in HEK293 cells; about a fifth of its hits are not listed in these tables; further: on the % scale 0 is the no-effect control and ±100 the full control effect; luciferase read-out
Lassa entry inh = inhibitors of Lassa virus binding or cell entry | Lassa virus pseudotype entry inhibition, cell reporter; control for the full effect not named in the record | Potency, µM (highest dose often 37.9 µM), without a hit: top-dose activity change, negative = inhibition, actives largely listed as inhibitors | 300,000 tested, 1.2% active | AID 540256; active means well fitted inhibition curve with a large enough effect; inconclusive means small, poorly fitted or top-dose-only effect, or effect the other way; inactive means flat fitted curve, though single readings scatter; tested in HEK293 cells; further: on the % scale 0 is the no-effect control and ±100 the full control effect; nearly all actives have a fitted effect of over 50% in size; luciferase read-out
StopGo reporter = lowers the luciferase signal of an FMDV 2A StopGo reporter; AID 1159524; 410,000 tested, 1.2% active; Potency, µM (highest dose often 57.9 µM), for inactives: top-dose signal change, negative = less light; human cells with a luciferase reporter of 2A StopGo recoding; control for the full effect not named in the record; active = well fitted falling curve with a large enough effect; inconclusive = small, poorly fitted or top-dose-only effect; inactive = no such curve, though single readings can be large or run the other way; tested in HEK293T cells; further: on the % scale 0 is the no-effect control and ±100 the full control effect; nearly all actives have a fitted effect of over 45% in size; luciferase light after 4 h
RE007 growth inh = less growth of the S. pombe RE007 Vpr strain; S. pombe RE007 Vpr strain, BacTiter-Glo ATP luminescence, 24 h; control for the full effect not named in the record; Potency, µM (top dose mostly 92.2 µM), without a hit: at the top dose activity change, negative = less growth; 360,000 tested, 0.21% active; active = well fitted falling curve with a large enough effect; inconclusive = small, poorly fitted or top-dose-only effect; inactive = no such curve, though single readings can be large or run the other way;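 further: on the % scale 0 is the no-effect control and ±100 the full control effect; nearly all actives have a fitted effect of over 50% in size; the assay follows cell death caused by Vpr and the record does not say whether a fall means rescue or toxicity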
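Fission yeast strain RE007, carrying one chromosomally integrated HIV-1 vpr copy, was seeded at OD 0.01 in PMG+AL medium with 23 nL pinned compound. After 24 h at 30 °C and 99% humidity, viability was read by BacTiter-Glo luminescence.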
The depositor's hits bear a star; ? = inconclusive; . = no result given; & = joins results of further samples; [ ] = another dose, or the depositor's remark. Unless noted, the call rests on the fitted dose curve; in most records, active means well fitted rising curve with a large enough effect; inconclusive means small, poorly fitted or top-dose-only effect; inactive means no such curve, though single readings can be large or run the other way. Potency means the concentration at half of the fitted maximal effect. Compounds were not picked by outcome; about 4.8% have a hit in one of these screens.

SMILES	SARS PLpro yeast	NS1 function inh	Cruzain inh noDet	Cruzain Triton	MARV entry inh	Lassa entry inh	StopGo reporter	RE007 growth inh
NS(=O)(=O)c1ccc(-n2nc(C(=O)O)cc2-c2ccc(Cl)cc2)cc1	0%	.	.	.	0%[46.1 µM]	3%[46.1 µM]	-10%	2%
COC(=O)c1[nH]c2cccc(OC)c2c1NC(=O)CCN1CC(C)CC(C)C1 (stereo not given)	3%	4%	2%	0.9%	6%&6%	9%	-1%	-12%
Nc1nc(NC(=O)/C=C/c2ccccc2)nn1-c1ccccc1	11%	-3%	0%	-3.7%	14%	-7%	-1%	6%
Nc1nc(N2CCN(c3cccc(Cl)c3)CC2)n[nH]1	2%	.	.	.	1%	10%	-14%	-1%
CCN(CCn1cccn1)C(=O)CCc1nnc(CCCc2ccccc2)o1	0%	-4%	.	.	?	-18%[46.1 µM]	38%[activator]	-10%
O=S(=O)(Nc1nc2ccccc2nc1NCC1CCCO1)c1cccs1 (stereo not given)	4%	-53%	12%	-5.3%	3%	14%	13%	1%
CN1N=C2c3ccccc3CCC2C1c1ccc(Cl)cc1 (stereo not given)	0%	0%	.	.	?	?	26%	11%
Cc1ccc(N2CCN(c3nc4ccc(C(=O)c5ccccc5)cc4n4cnnc34)CC2)c(C)c1	.	.	4%	-2.5%	.	?	5%	.
CC1CCCN(c2ccc3nncn3n2)C1 (stereo not given)	-2%	0%	.	.	.	.	-16%	-6%
CCOc1ccccc1-c1noc(CSc2nnc(-c3ccccc3)n2-c2ccc(OC)cc2)n1	.	.	-9%	-3.7%	?	-2%[46.1 µM]	?	.
Cc1cccc(C(=O)n2cnnc2N)c1	1%	5%	.	.	-4%[46.1 µM]	-6%[46.1 µM]	-9%	10%
COc1ccc(NC(=O)c2oc3ccc(S(=O)(=O)N4CCCCC4)cc3c2C)cc1Cl	.	.	-3%	1.6%	.	1%[46.1 µM]	?	.
COc1ccc(NS(=O)(=O)c2cccc(C(=O)N3CCC3)c2)cc1	-1%	.	.	.	-6%	-13%	16%	-9%
CN(C)C(=O)c1ccc2c(c1)n(C)c(=O)n2C	-17%	-3%	0%	1.1%	11%	-5%	12%	14%
COc1ccc(-c2cnnc(N/N=C/c3ccc(O)c(OC)c3)n2)cc1	15%	-9%	-15%	2.2%	?	5.8µM*	-19%	-1%
Cc1ccc(S(=O)(=O)CCC(=O)OCC(=O)Nc2ccc(N3CCOCC3)cc2)cc1	-3%	.	.	.	-2%	0%	-1%	9%
COc1ccccc1C(=O)NCCC(=O)NC(C)CCc1ccccc1 (stereo not given)	-1%	.	.	.	9%	3%	-6%	-13%
CCOC(=O)CNC(=O)CSc1ncnc2c1cnn2-c1ccc(OC)cc1	8%	-2%	7%	0.2%	11µM*	?	0%	3%
CC(C(=O)Nc1cccc(Br)c1)c1ccc([N+](=O)[O-])cc1 (stereo not given)	-67%	-83%	-4%	-5.0%	?	?	-18%	4%
COc1ccc(NC(=S)N2CCN(Cc3ccc(C)cc3)CC2)cc1	3%	0%	.	.	0%[14.2 µM]	?	?	14%

Grouped by structure: the compounds so far with a Cl atom
SMILES	SARS PLpro yeast	NS1 function inh	Cruzain inh noDet	Cruzain Triton	MARV entry inh	Lassa entry inh	StopGo reporter	RE007 growth inh
NS(=O)(=O)c1ccc(-n2nc(C(=O)O)cc2-c2ccc(Cl)cc2)cc1	0%	.	.	.	0%[46.1 µM]	3%[46.1 µM]	-10%	2%
Nc1nc(N2CCN(c3cccc(Cl)c3)CC2)n[nH]1	2%	.	.	.	1%	10%	-14%	-1%
CN1N=C2c3ccccc3CCC2C1c1ccc(Cl)cc1 (stereo not given)	0%	0%	.	.	?	?	26%	11%
COc1ccc(NC(=O)c2oc3ccc(S(=O)(=O)N4CCCCC4)cc3c2C)cc1Cl	.	.	-3%	1.6%	.	1%[46.1 µM]	?	.

The list continues:
SMILES	SARS PLpro yeast	NS1 function inh	Cruzain inh noDet	Cruzain Triton	MARV entry inh	Lassa entry inh	StopGo reporter	RE007 growth inh
COc1ccccc1/C=C/C1=NC(=C\N(C)C)/C(=O)O1	-3%	-22%	-2%	-17%	?	7%	29%	-5%
Cc1oc(-c2ccc(Cl)cc2)cc1-c1nn2c(-c3ccco3)nnc2s1	-2%	-1%	-6%	-8.7%	-3%	.	.	.
CC(C)c1csc(CN2CCC(CO)(Cc3ccccc3)CC2)n1	1%	2%	.	.	1%[46.1 µM]	1%[46.1 µM]	-9%	-13%
CCc1ccc(-c2cn3c(n2)sc2cc(C(=O)NCC(C)c4ccccc4)ccc23)cc1 (stereo not given)	.	.	1%	-0.8%	.	-20%[46.1 µM]	17%	.
Cc1ccccc1C(=O)Nc1ccc2c(c1)nc(CCNC(=O)c1ccco1)n2C	1%	11%	.	.	.	.	-9%	-2%
Cc1ccc(Cn2cc(C(=O)NN)c(=O)c3ccc(F)cc32)cc1	2%	12%	.	.	.	.	-28%	5%
Cc1ccc(CCNC(=O)c2cc3n(n2)CCCN(Cc2ccc(C)cc2)C3=O)cc1	.	.	0%	-1.0%	.	?	-9%	.
COC(=O)Cc1ccc(NC(=S)N2CCN(c3cc(Cl)ccc3C)CC2)cc1	0%	-1%	.	.	?	-25%	?	3%
C#CCOc1ccc(C2C(C#N)=C(N)Oc3cc(O)ccc32)cc1 (stereo not given)	-6%	10%	.	.	29%	19%	9%	2%
CC(C)(C)NC(=O)COC(=O)CCC(=O)c1ccc(F)cc1	-1%	.	.	.	9%[46.1 µM]	-9%	0%	-5%
COc1ccc(CNc2ncnc3ccccc23)cc1	-2%	-11%	.	.	?	?	?	25%
COc1cccc(NS(=O)(=O)c2c(C(=O)N3CCCCCC3)c(C)n(C)c2C)c1	3%	-6%	.	.	.	.	34%[activator]	?
COc1ccc(CNC(=O)c2ccc(Cn3nc(C)c([N+](=O)[O-])c3C)o2)cc1	-7%	-60%	.	.	?	-19%[46.1 µM]	-28%	10%
O=C1OCCN1C(=O)[C@H]1[C@H](c2ccc(F)cc2)C(c2ccccc2)=NN1c1ccc(Br)cc1	4%	.	22µM*	-8.7%	.	.	-19%	5%
COc1cccc(OCC(O)CN(CCO)Cc2ccccc2)c1 (stereo not given)	-17%	-2%	0%	-1.8%	-2%	3%	-14%	16%
COc1ccc(OC)c(C(=O)COC(=O)c2c(OC)cccc2OC)c1	3%	-8%	1%	-5.2%	-14%	-5%	11%	12%
COC(=O)c1ccc2c(=O)n(CCCCCC(=O)NCc3ccc(OC)cc3)c(=O)[nH]c2c1	.	.	-6%	1.7%	.	10%[46.1 µM]	-14%	.
COC(=O)[C@@]1(Cc2ccc(F)cc2)[C@H]2c3cc(C(=O)N4CCCC4)n(CCc4ccc(O)c(O)c4)c3C[C@H]2CN1C(=O)c1ccccc1	7%	8.9µM*	?	-7.5%&-2.1%	?	10%	.	.
CCOCCCNC(=O)c1cn(CC)c2ccc(S(=O)(=O)N3CCc4ccccc4C3)cc2c1=O	.	.	0%	-3.2%	-8%[46.1 µM]	17%[46.1 µM]	-16%	.
CC(=O)Nc1ccc(Nc2ncnc3c2cnn3-c2cccc(C)c2)cc1	5%	-7%	?	-15%	3%	10%	-15%	-1%

Three compounds from above, limited to SARS PLpro yeast.
smiles | SARS PLpro yeast
COc1ccccc1/C=C/C1=NC(=C\N(C)C)/C(=O)O1 | -3%
Cc1oc(-c2ccc(Cl)cc2)cc1-c1nn2c(-c3ccco3)nnc2s1 | -2%
CC(C)c1csc(CN2CCC(CO)(Cc3ccccc3)CC2)n1 | 1%

Complete entries as entered above. Order of values: SARS PLpro yeast, NS1 function inh, Cruzain inh noDet, Cruzain Triton, MARV entry inh, Lassa entry inh, StopGo reporter, RE007 growth inh
`C#CCOc1ccc(C2C(C#N)=C(N)Oc3cc(O)ccc32)cc1` (stereo not given) as listed: -6%, 10%, ., ., 29%, 19%, 9%, 2%
`Cc1ccc(CCNC(=O)c2cc3n(n2)CCCN(Cc2ccc(C)cc2)C3=O)cc1` as listed: ., ., 0%, -1.0%, ., ?, -9%, .

(cont.)
SMILES	SARS PLpro yeast	NS1 function inh	Cruzain inh noDet	Cruzain Triton	MARV entry inh	Lassa entry inh	StopGo reporter	RE007 growth inh
O=C(Cn1nnc2ccccc2c1=O)N1CCCc2ccccc21	4%	1%	-11%	-0.4%	-3%	6%	14%	2%
COCCCn1c(=O)c2ccccc2n(Cc2cc(C(=O)OC)ccc2OC)c1=O	2%	1%	.	.	.	.	-14%	4%
O=C(Cn1ncc2c(=O)oc3ccccc3c21)NCC1CCCO1 (stereo not given)	7%	5%	0%	-1.7%	-5%	-5%	-16%	9%
Cc1cnnn1-c1ccc([N+](=O)[O-])cc1	-4%	.	.	.	1%[46.1 µM]	20%	-13%	-9%
CN(Cc1ccc(F)cc1)C(=O)c1cccc(S(=O)(=O)N2CCN(c3ccccc3)CC2)c1	0%	.	.	.	?	?	?	-8%
Cc1ccc2occ(CC(=O)Nc3ccc(S(=O)(=O)N4CCC(C)CC4)cc3)c2c1	.	.	?	-5.6%	-30%[46.1 µM]	-29%[46.1 µM]	26%	.
O=C(COC(=O)/C=C/c1cccc([N+](=O)[O-])c1)NCc1ccc2c(c1)OCO2	-6%	.	.	.	2%	10%	-12%	-5%
Cc1nc2sc(C)c(C)n2c(=O)c1S(=O)(=O)N1CCN(c2ccccc2F)CC1	.	.	6%	-3.1%	.	8%[46.1 µM]	-1%	.
CCOC(=O)c1sc(/N=C/c2c(O)n(-c3cccc(C)c3)c(=O)[nH]c2=O)c(C#N)c1C	-2%	14%	8%	-2.6%	?	?	-21%	-11%
CN1CCN(c2ncnc(Cl)c2N)CC1	0%	-1%	.	.	.	.	4%	7%
CCOP(=O)(c1ccc(N(C)C)cc1)C(O)c1ccc(C)cc1 (stereo not given)	0%	1%	.	.	-1%[46.1 µM]	1%	6%	6%
CC(=O)c1cc(-c2ccccc2)n(CCC(=O)NCc2cccs2)c1C	2%	-6%	7%	4.3%	-9%	-24%	-5%	-11%
